RGS16-Gao HTS: modulators of RGS16 binding to Galphao, primary screen, biochemical, human proteins, multiplexed bead flow cytometry; Regulator of G-protein signaling 16 (Homo sapiens) + Guanine nucleotide-binding protein …; bead-based flow cytometry RGS16-Galphao binding, fluorescence; actives lie on both sides; binding response (% of control), % at 10 µM; 0.38% of 220,000 active; AID 1441, 2008;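 active means below 25% or above 175%, edge rows of some plates excepted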;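 further: Galphao activated by GDP with aluminum fluoride before binding; 100% = wells without compound and 0% = beads without RGS; some results beyond the cut were filed as inactive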
Target sequence (O15492 whole entry, looked up): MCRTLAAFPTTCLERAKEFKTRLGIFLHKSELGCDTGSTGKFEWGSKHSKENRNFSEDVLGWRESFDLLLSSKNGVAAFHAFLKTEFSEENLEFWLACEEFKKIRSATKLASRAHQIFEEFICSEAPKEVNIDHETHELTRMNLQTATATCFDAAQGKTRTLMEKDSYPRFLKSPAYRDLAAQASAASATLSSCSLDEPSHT
Target sequence (P09471 whole entry, looked up): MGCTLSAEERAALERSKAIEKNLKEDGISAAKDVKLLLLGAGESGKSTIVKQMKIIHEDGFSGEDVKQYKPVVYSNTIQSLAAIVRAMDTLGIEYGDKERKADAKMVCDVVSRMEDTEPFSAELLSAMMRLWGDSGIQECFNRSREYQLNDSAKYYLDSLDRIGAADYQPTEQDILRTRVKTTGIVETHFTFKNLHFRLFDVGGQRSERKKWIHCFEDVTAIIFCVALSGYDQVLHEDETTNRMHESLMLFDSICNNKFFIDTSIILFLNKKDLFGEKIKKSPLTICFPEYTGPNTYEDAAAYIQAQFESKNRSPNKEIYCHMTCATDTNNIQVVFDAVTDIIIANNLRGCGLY
INS promoter inh: inhibitors of insulin promoter-driven GFP, primary screen, imaging, TRM-6 cells (human fetal islet line), eGFP reporter, cell count. reporter expression induced with tamoxifen. inhibition, % at 2 µM. 0.9% of 130,000 active. AID 1273, 2008;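 active means inhibition above the mean plus 3 SD, with well images judged a real hit on visual review, cut at about 60% in these data, passing the limit was not always enough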
PKD1 inh: inhibitors of human PKD1 kinase, biochemical, fluorescence polarization. PKD1 kinase fluorescence polarization assay. Serine/threonine-protein kinase D1 (Homo sapiens), Q15139. 0.056% of 200,000 active. inhibition, %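 (about 10 µM by stock and volumes)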;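 active means inhibition of 50% or more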;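 further: controls were vehicle for no effect and a reference inhibitor for full effect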
GALR2 ag: GALR2 receptor agonists, primary screen, cell-based | activation, %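 (tested at 5 µM)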 | 0.48% of 140,000 active | GALR2-expressing cells, agonist activation read-out;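 active means above mean plus 3 SD of all compounds, about 5% in these data, not always enough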;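 further: 0% = vehicle buffer wells and 100% = reference agonist at full effect; tested in CHO reporter cells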
Target sequence (O43603 whole entry, looked up): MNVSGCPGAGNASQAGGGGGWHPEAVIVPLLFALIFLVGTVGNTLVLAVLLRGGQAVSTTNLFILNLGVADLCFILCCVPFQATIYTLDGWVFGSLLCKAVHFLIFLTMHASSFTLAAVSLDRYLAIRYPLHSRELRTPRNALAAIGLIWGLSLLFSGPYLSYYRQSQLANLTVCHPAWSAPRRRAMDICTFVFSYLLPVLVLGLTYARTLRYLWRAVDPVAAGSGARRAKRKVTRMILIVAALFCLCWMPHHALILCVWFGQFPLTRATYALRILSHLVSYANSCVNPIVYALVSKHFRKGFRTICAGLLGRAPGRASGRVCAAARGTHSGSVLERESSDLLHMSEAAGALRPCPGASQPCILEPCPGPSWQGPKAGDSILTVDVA
HSV augment: enhancers of HSV replication in host cells, fold increase, host cell viability. HSV replication augmentation in cells. maximum fold increase. 0.005% of 220,000 active;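 active means peak rise of 1.5-fold or more in the series; tested in PC3 cells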;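 further: first round at 10 µM; read as green reporter fluorescence; hits show the peak of a series up to 25 µM; 1 = signal of infected wells without compound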
INS promoter inh cell count: recorded beside INS promoter inh, whose call it bears; normalized cell count, %; measured here: cell count, toxicity; reference of the scale not given here;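 cells exposed to compound for 48 h; stained nuclei by imaging scaled within each plate; lower means fewer cells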
HSV augment primary fold: recorded beside HSV augment, whose call it bears; fold increase; compound at 10 µM; measured here: primary screen fold increase 10 uM; tested in PC3 cells;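 GFP signal in the first replicate; 1 = infected wells without compound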
* hit, by the source's call; i = inactive; . = no result given; [ ] = another dose, or the depositor's remark. Compounds were not picked by outcome. About 1.1% of those tested had a hit in this group.

SMILES,RGS16-Gao HTS,INS promoter inh,INS promoter inh cell count,PKD1 inh,GALR2 ag,HSV augment,HSV augment primary fold
CC(=O)c1c(N2CCOCC2)nc(=S)n(-c2cc(C)ccc2C)c1C,101,70,85,-2,-2.4,i,0.79
C=CCN(CC=C)C(=O)Nc1cc(Cl)ccc1OC,79,0,80,-11,0.4,i,0.9
CCO/C=C/C(O)(CNC(=O)c1ccc(C(C)(C)C)cc1)C(F)(F)F (stereo unspecified),99,-34,110,-13,-0.4,i,0.89
Cc1cc(C)c(S(N)(=O)=O)c(C)c1N(C)S(=O)(=O)c1ccccc1,100,-114,111,-4,.,i,0.99
CC(=O)Nc1ccc2nc(SCC(=O)Nc3ccc(N4CCOCC4)c(Cl)c3)sc2c1,104,28,81,-12,0.3,i,0.95
Cc1c(CCO)c(=O)n(-c2ccccc2)n1S(=O)(=O)c1ccc(Cl)cc1,98,-18,169,-2,-0.7,i,1.1
COc1cccc(C2C3=C(Nc4[nH]n(-c5ccccc5)c(=O)c42)c2ccccc2C3=O)c1 (stereo unspecified),136,27,28,0,-0.2,i,1
Cc1ccc(-c2nc(-c3ccccn3)sc2CC(=O)O)cc1,101,.,.,.,.,i,0.76
O=C1CC(c2ccccc2)CC(=NCCO)/C1=C(\O)CCCN1C(=O)c2ccccc2C1=O (stereo unspecified),102,7,86,-7,.,i,0.94
Cc1cccc(C)c1OCC(=O)Nc1oc(-c2ccccc2)c(-c2ccccc2)c1C#N,.,11,100,-9,-1.2,i,0.93
COCC(=O)Nc1nc2ccccc2s1,97,14,63,-1,-2.6,i,0.98
CCOCCCNC(=O)COC(=O)/C=C/c1ccc(S(=O)(=O)N2CCc3ccccc32)cc1,106,16,71,-5,.,i,1.1
Cc1ccc(CN(Cc2ccco2)C(=S)NCC(=O)NC2CC2)cc1,104,25,160,3,.,i,0.99
COC(=O)C(NC(C)=O)(Nc1ccccc1)C(=O)OC,95,.,.,-1,-2.0,i,0.95
O=C(CCN1C(=O)/C(=C/c2ccc(F)cc2)SC1=S)NNC(=O)c1ccncc1,109,.,.,-2,.,i,1
CC(C)[C@H](NC(=O)c1ccco1)C(=O)OCc1cc(=O)n2c(n1)sc1ccccc12,91,.,.,13,.,i,0.99
COC(=O)c1c(NC(=O)COC(=O)c2ccc(Cl)cc2[N+](=O)[O-])sc2c1CCCCC2,104,.,.,3,0.2,i,0.84
CCOP(=O)(OCC)C(C#N)=C1SCN(c2ccc(Cl)cc2)CS1,97,3,107,-1,-0.1,i,1.1
O=C(Nc1ccc(N2CCCCC2)cc1)c1ccccn1,63,-82,70,-3,.,i,1
O=c1c2c3c(sc2ncn1/N=C/c1ccccc1)CCCC3,101,-333,57,-4,-2.3,i,1

More results follow:
SMILES,RGS16-Gao HTS,INS promoter inh,INS promoter inh cell count,PKD1 inh,GALR2 ag,HSV augment,HSV augment primary fold
CCOc1ccccc1N=C1SC(CC(=O)Nc2ccc(OC)cc2OC)C(=O)N1CCC1=CCCCC1 (stereo unspecified),67,.,.,1,-1.4,i,0.99
CC(=O)Nc1nnc(SCC(=O)c2ccc3c(c2)Cc2ccccc2-3)s1,96,.,.,-1,-0.8,i,0.95
CC1CCN(c2ccc(/C=N\Nc3nncn3N)cc2[N+](=O)[O-])CC1,103,-4,100,-5,-0.9,i,0.79
O=c1c(-c2ccc(F)cc2)coc2c3c(ccc12)OCCO3,101,18,96,-3,-1.5,i,0.76
N#CCC(=N)N1CCN(c2ccccc2)CC1,76,-144,118,-2,-3.7,i,0.92
CCOC(=O)Oc1ccc2c(=O)c(Oc3cc(C)cc(C)c3)coc2c1,107,.,.,-1,-2.8,i,0.98
COc1ccc(-c2cn3cc(C(F)(F)F)cc(Cl)c3n2)cc1,97,.,.,-1,.,i,0.65
CCOC(=O)c1ccc(NC(=O)CN2CCN(Cc3ccccc3)CC2)cc1,107,.,.,1,.,i,0.83
CC(C)(C)NCCOCCOc1ccc(Cl)cc1C(C)(C)C,99,.,.,0,.,i,0.85
Cc1cc(C)nc(NS(=O)(=O)c2ccc(NC(=O)c3cccc(N4C(=O)CCC4=O)c3)cc2)n1,103,-36,126,-5,-0.8,i,0.85
COc1ccc2cc(CN(CCc3ccccc3)Cc3nnnn3CC3CCCO3)c(=O)[nH]c2c1 (stereo unspecified),98,-29,149,-7,0.9,i,0.93
COc1ccc(NS(=O)(=O)c2ccc(S(=O)(=O)N(C)C)cc2)cc1S(N)(=O)=O,104,.,.,0,.,i,0.96
COc1ccc(NC(=O)OCCn2c([N+](=O)[O-])cnc2C)cc1,108,20,121,0,-1.3,i,1
CC(=O)Nc1sc2c(c1C(c1cccc(F)c1)N1CCN(CCO)CC1)CCCC2 (stereo unspecified),97,.,.,4,.,i,0.9
Cc1nc2c(C)cccc2cc1C(=O)N/N=C/c1cccc([N+](=O)[O-])c1,108,-47,63,7,-1.4,i,0.7
COc1ccc(-c2nc3c4ccccc4ccn3c2CN2CCCCC2)cc1,101,-7,151,0,.,i,0.99
COc1ccc(C)cc1-n1nnnc1SCn1nnc2ccccc2c1=O,99,.,.,5,-1.5,i,0.98
CCOC(=O)/C(N=Nc1cc(C(=O)O)cc(C(=O)O)c1)=C(\O)CCl,119,-33,60,-7,-0.6,i,0.89
COc1ccc(C)cc1NC(=S)NNC(=O)c1c(Br)cnn1C,93,.,.,5,.,i,0.97
COc1ccc(Nc2nc(N3CCCCC3)nc3ccccc23)c(OC)c1,104,57,163,1,-2.4,i,0.79

2 entries drawn at random from the list so far, as already listed:
SMILES,RGS16-Gao HTS,INS promoter inh,INS promoter inh cell count,PKD1 inh,GALR2 ag,HSV augment,HSV augment primary fold
N#CCC(=N)N1CCN(c2ccccc2)CC1,76,-144,118,-2,-3.7,i,0.92
CC1CCN(c2ccc(/C=N\Nc3nncn3N)cc2[N+](=O)[O-])CC1,103,-4,100,-5,-0.9,i,0.79

Continued:
SMILES,RGS16-Gao HTS,INS promoter inh,INS promoter inh cell count,PKD1 inh,GALR2 ag,HSV augment,HSV augment primary fold
CCCCn1c(=O)nc2n(-c3ccc(OC)cc3)c3ccccc3cc-2c1=O,102,.,.,-4,.,i,0.88
N#CCCn1cc(C(=O)N2CCOCC2)c(-c2ccc3c(c2)OCCO3)n1,100,31,118,5,.,i,0.93
COC(=O)c1cc(-c2cccs2)[nH]n1,102,.,.,4,.,i,0.94
CN(CCCC(=O)NC1CC(C)(C)NC(C)(C)C1)S(=O)(=O)c1ccc([N+](=O)[O-])cc1,100,.,.,2,.,i,0.95
Cc1ccc(N(C(=O)c2cc3ccccc3oc2=O)C2C=CS(=O)(=O)C2)cc1 (stereo unspecified),129,.,.,-8,-1.1,i,0.87
S=c1nc(-c2ccccc2)n(Cc2ccco2)c2c1CCCC2,99,-56,112,1,1.1,i,0.89
Cn1ncc(N2CCN(S(=O)(=O)c3ccc(Br)cc3)CC2)c(Cl)c1=O,102,.,.,-10,.,i,0.98
Cc1ccc(S(=O)(=O)Oc2cccc(/C=N/Nc3ccc(C(=O)O)cc3)c2)cc1,101,.,.,.,.,i,0.97
Cc1ccccc1SCC(=O)Nc1cccc(C#N)c1,18,0,81,-3,-2.1,i,0.86
Cc1cccc(C)c1NC(=O)N1C2CCCC1CC(NC(=O)C(C)(C)C)C2 (stereo unspecified),102,6,84,1,-1.0,i,1.1
NS(=O)(=O)c1ccc(CCNC(=O)C2CCCN2C(=O)OCc2ccccc2)cc1 (stereo unspecified),116,12,89,-18,-1.3,i,0.9
CC(C)[C@H](NC(=O)[C@@H]1Cc2ccccc2CN1C(=O)OC(C)(C)C)C(=O)NCC1CCC(C(=O)O)CC1 (stereo partly specified),102,.,.,.,.,i,1
CCn1c(N2CCN(CC(=O)c3ccc(OC)cc3)CC2)nc2ccccc21,103,-93,90,-7,-0.1,i,1
COc1cc(NC(=O)CSc2nc(C)c(C)c(C)n2)cc(OC)c1,99,.,.,-1,.,i,0.89
CCCCCCC(=O)Nc1ccc(C(=O)N/N=C/c2cccnc2)cc1,99,.,.,2,-0.2,i,0.87
COC(=O)c1ccc(C23CC4(C2)[C@H](CN(Cc2cccnc2)[C@@H]4c2ccccc2)C3c2ccccc2)cc1 (stereo partly specified),104,.,.,.,.,i,0.96
N#Cc1cccc(C#N)c1N1CCC(C#N)CC1,99,.,.,-6,.,i,0.79
O=C(CNCC1CCCCC1)Nc1ccc(OC(F)(F)F)cc1,106,8,142,4,.,i,0.95
CC(C)CCn1c(CN(C)Cc2ccccc2)nc2c1c(=O)n(C)c(=O)n2C,127,.,.,5,-3.0,i,0.83
Cc1cc(N2CCC(C(=O)NC3CCCCC3)CC2)nc(-c2ccccc2)n1,102,.,.,-7,-1.2,i,1.1

(continued)
SMILES,RGS16-Gao HTS,INS promoter inh,INS promoter inh cell count,PKD1 inh,GALR2 ag,HSV augment,HSV augment primary fold
Cc1ccc(S(=O)(=O)N2CCC(c3nc4c(nnn4Cc4ccccc4)c(=O)[nH]3)CC2)cc1,94,.,.,-6,.,i,0.89
C/C(=N/NC(=O)Cn1nc2ccccc2n1)c1ccc(F)cc1,98,10,121,-2,-0.4,i,0.91
COc1cccc(-c2nnc(SCC(=O)N3CC(C)CC(C)C3)o2)c1 (stereo unspecified),129,.,.,-7,-0.9,i,1.1
CCCOC(=O)c1c(N)sc2c1CCC2,90,39,79,-4,-1.4,i,1.2
Cc1cc(C(=O)OCC(=O)NC(C)(C)C)c2ccccc2n1,104,-7,83,-3,-3.0,i,0.95
O=C(Nc1nn[nH]n1)c1cc(-c2ccc(Cl)c(Cl)c2Cl)nc2ccccc12,101,.,.,-4,.,i,0.88
Cc1ccccc1-c1nnc(SCc2ccccc2F)o1,100,.,.,-11,-1.2,i,0.8
CN(C)c1nc(-c2ccccc2)c2cnn(Cc3ccccc3)c2n1,103,.,.,-11,4.5,i,0.81
COCCn1c(SCC(=O)N2CCCc3ccccc32)nc2c(c1=O)SC(C)C2 (stereo unspecified),114,.,.,-3,-3.4,i,1.1
CNC(=S)N(Cc1ccco1)Cc1cc2cc(OC)ccc2[nH]c1=O,103,.,.,-2,.,i,0.89
COc1cc(Cl)ccc1NC(=O)COc1ccccc1C(=O)N1CCN(c2ccc(O)cc2)CC1,87,79*,56*,-5,0.5,.,.
O=S(=O)(Cc1ccccc1)N1CCC(c2nc(-c3cccs3)no2)CC1,97,60,124,18,-3.9,i,0.99
N#C/C(=N\Nc1ccc(S(=O)(=O)N2CCCCC2)cc1)C(N)=S,93,3,114,-9,-1.0,i,0.6
NNC(=S)NC1CCCCCCCCCCC1,98,.,.,.,.,i,0.99
Cc1cc(=O)[nH]c(SCC(=O)Nc2cccc3ccccc23)c1C#N,219*[activator],-13,90,0,-3.2,i,0.9
Fc1ccc(C2=Nn3c(Cc4ccccc4F)nnc3SC2)cc1,102,0,53,-3,-3.5,i,0.94
Nc1ccc(CN2CCOCC2)cc1,108,21,124,-2,.,i,1
Cn1c(SCC(=O)N/N=C/c2ccc(O)c(O)c2)nc2ccccc21,83,.,.,.,.,i,1.1
O=C(Cc1cn2ccsc2n1)OCc1nc2ccccc2s1,78,10,81,-4,-0.9,i,0.88
COc1ccc(-c2cccc(C3CC=CC4C3C(=O)N(Cc3ccccc3)C4c3ccc(C(F)(F)F)cc3)c2)cc1 (stereo unspecified),103,.,.,.,.,i,0.8

Following part
SMILES,RGS16-Gao HTS,INS promoter inh,INS promoter inh cell count,PKD1 inh,GALR2 ag,HSV augment,HSV augment primary fold
Cc1ccc2cc(CN(Cc3cccs3)C(=O)c3ccco3)c3nnnn3c2c1C,40,-31,55,-2,-1.4,i,0.96
CCOC(=O)C1(C(=O)O)NC(=O)CC1c1ccccc1 (stereo unspecified),102,-45,103,-8,-3.1,i,1.2
COc1ccccc1OCC(=O)NCCSCc1cccc(Cl)c1,101,17,135,-5,-0.1,i,0.86
Cc1ccc(NC(=O)c2cc(N3C(=O)C4CCCCC4C3=O)ccc2N2CCOCC2)cc1 (stereo unspecified),103,.,.,-1,.,i,0.89
COc1ccc(N2CCN(C(=S)NCCc3ccccc3)CC2)cc1,.,11,129,-9,1.2,i,0.97
COc1cccc(CNC(=O)c2nnn(-c3ccc(OC(F)(F)F)cc3)c2N)c1,104,-10,127,1,-2.9,i,0.83
COC(=O)C(C(=O)NCC1CCCO1)C1CCCCCC1 (stereo unspecified),99,8,98,2,-1.3,i,0.88

Compound activity: PubChem, several laboratories
